Rce1 inhib = inhibitors of yeast Ras-converting enzyme; Q03530; yeast membranes, quenched prenylated peptide cleavage fluorescence; calls only; 290,000 tested, 0.27% active; AID 2563;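 active means fall in fluorescence gain of 50% or more versus controls, with final raw signal at or below 3038400; inconclusive means same 50% fall but final raw signal above 3038400; inactive means fall in fluorescence gain under 50%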;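 further: plate controls were neutral control wells for no effect and wells lacking membranes for full effect; tested at 10 µM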
PABP FP inh = blocks human PABP binding to poly(A) RNA. AID 2014. fluorescence polarization. P11940. inhibition, % at 35 µM. 290,000 tested, 1% active;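 active means 50% or more with normal probe brightness, or confirmed in later tests; inconclusive means above 50% with abnormal brightness, or retests that disagree; inactive means below 50% or failed in later tests; about a fifth of its hits are not listed in these tables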;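 further: calls also rest on retests at 20 µM and on dose response follow-up; controls were probe without protein and protein plus probe with vehicle; some compounds called inactive have numbers as strong as hits; many hits fall short of the cut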
Target sequence (P11940 whole entry, looked up): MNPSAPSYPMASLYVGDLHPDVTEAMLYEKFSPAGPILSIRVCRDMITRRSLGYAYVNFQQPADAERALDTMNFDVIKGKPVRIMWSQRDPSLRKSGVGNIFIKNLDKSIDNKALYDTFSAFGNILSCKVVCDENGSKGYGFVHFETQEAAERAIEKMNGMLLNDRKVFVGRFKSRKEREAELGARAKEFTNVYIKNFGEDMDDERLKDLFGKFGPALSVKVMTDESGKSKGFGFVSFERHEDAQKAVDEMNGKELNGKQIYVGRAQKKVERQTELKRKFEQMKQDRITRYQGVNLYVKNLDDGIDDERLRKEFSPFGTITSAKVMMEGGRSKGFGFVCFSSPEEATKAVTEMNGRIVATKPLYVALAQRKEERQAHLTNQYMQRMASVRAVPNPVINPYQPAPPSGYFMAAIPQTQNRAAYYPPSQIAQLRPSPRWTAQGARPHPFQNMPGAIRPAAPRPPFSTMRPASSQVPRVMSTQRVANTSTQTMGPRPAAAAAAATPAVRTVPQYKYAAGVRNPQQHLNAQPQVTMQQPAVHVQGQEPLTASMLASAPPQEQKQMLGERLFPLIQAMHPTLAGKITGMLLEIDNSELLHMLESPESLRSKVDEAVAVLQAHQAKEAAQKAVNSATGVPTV
eIF4H FP inh = inhibitors of RNA binding by human eIF4H; Q15056; inhibition, % at 35 µM; eIF4H fluorescence polarization binding assay; 290,000 tested, 0.94% active;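 active means 50% or more with normal probe brightness, or confirmed in later tests; inconclusive means above 50% with abnormal brightness, or retests that disagree; inactive means below 50% or failed in later tests; about a fifth of its hits are not listed in these tables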;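 further: calls also rest on retests at 20 µM and on dose response follow-up; 0% = protein and probe with vehicle and 100% = probe without protein; strong numbers were not always called active; many hits fall short of the cut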
UUG fidelity = yeast start codon fidelity modulation; activity score, % at 18.7 µM; AID 602363; 350,000 tested, 0.13% active; S. cerevisiae UUG-firefly luciferase reporter, luminescence/redox ratio;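 active means replicate mean at a twofold rise or more, about +100% in these data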;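 further: firefly luciferase made from a UUG start codon reports start codon fidelity; reporter light over untreated wells divided by growth signal over untreated wells; some hits fall short of that in this replicate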
MT1-MMP act inh = MT1-MMP (human) activation inhibition; GFP/RFP ratio change, % at 20 µM; HT1080 RFP-PRO-GFP cells, GFP/RFP ratio fluorescence, overnight; percent of plate control window, DMSO zero; 360,000 tested, 0.061% active; P50281;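 active means GFP/RFP ratio change of at least 30% with cell ATP level not reduced by more than half and red fluorescence within 50% of control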; further: strong numbers were not always called active
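Assay system: HT1080 RFP-PRO-GFP cells. Benchmarks: DMSO vehicle wells and RFP-L50D-GFP reporter cell wells. Times: overnight cell settling, then overnight compound exposure, 37 °C, 5% CO2. Compound: 20 µM single dose, 1% DMSO. Read-out basis: GFP/RFP fluorescence ratio.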
Env fusion inh = inhibitors of HIV Env-mediated cell fusion. inhibition, % at 12.3 µM. 360,000 tested, 1.1% active. HeLa-JRFL Env/CEM21 cell fusion, luciferase;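 active means mean replicate inhibition score of at least 50 and every replicate individually at or above 50; inconclusive means only one of the two criteria met; inactive means mean below 50 and not all replicates reaching 50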;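 further: 0% = plate neutral controls and 100% = maraviroc near 300 nM; one replicate is shown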
CSC inhib = cancer stem cell inhibition; inhibition, % at 7.5 µM; cancer stem cell-like cells viability, luminescence; AID 2717; 300,000 tested, 1.1% active;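 active means mean at 75% or more and at least half the replicates too; inconclusive means mean and replicates disagree; tested in HMLE shEcad cells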;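 further: 0% = median of negative and 100% = median of positive control wells; the first replicate is given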
eIF4H FP inh retest = also measured in eIF4H FP inh; calls as there; inhibition, %; compound at 20 µM; confirmation average;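 mean of two retest wells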
PABP FP inh retest = also measured in PABP FP inh; calls as there; inhibition, %; compound at 20 µM; confirmation repeats;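 mean of two retest wells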
MT1-MMP act inh RFP = second read-out of MT1-MMP act inh, no call of its own (marks repeat the call); RFP signal change, %; measured here: RFP expression control read;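 0 = vehicle wells; hits needed this value within 50% of zero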
* marks the source's active call; other numbers are inactive results; i = inactive; ? = inconclusive; nt = not tested or not shown; & = joins results of further samples.

SMILES	Rce1 inhib	PABP FP inh	eIF4H FP inh	UUG fidelity	MT1-MMP act inh	MT1-MMP act inh RFP	Env fusion inh	CSC inhib	others
CC1(C(=O)Nc2cccc(C(F)(F)F)c2)Cc2c(-c3ccc4c(c3)OCO4)ccnc2O1 (configuration not stated)	nt	nt	nt	-15	-4	-3	-15	nt
COc1ccc(NC(=O)C(CCSC)NC(N)=O)cc1NS(=O)(=O)c1ccc(F)cc1 (configuration not stated)	i	-6	2	nt	0	2	14	-2
COc1ccc(N=C(c2ccccc2)c2c(C)[nH]n(-c3ccccc3)c2=O)c(OC)c1	i	-4	-1	-12	-5	-15	15	nt
O=C(CN1C(=O)c2cccnc2Oc2ccc(Cl)cc21)Nc1ccccc1F	i	-9	-7	-11	9	5	-23	-5
Cc1cc(=O)[nH]c(SCCOc2ccc(OC(C)C)cc2)n1	i	-7	-5	-26	6	3	-26	-13
CC(C)(C)OC(=O)NCCCCCNC(=O)c1[nH]cnc1C(=O)NC1CCN(C(=O)OC(C)(C)C)CC1	nt	nt	nt	18	3	-11	-10	-7
C/C(=C1/C(=O)N(c2ccc([N+](=O)[O-])cc2)N=C1c1ccccc1)N(C)C	nt	1	-5	nt	nt	nt	nt	30
O=C(Nc1ccc(Br)cc1F)C1CC(=O)N(C2CCCCC2)C1 (configuration not stated)	i	-1	-7	-6	0	0	15	5
CC(C)C1C(=O)N(Cc2cn(CC3CCCCC3)nn2)CCS(=O)(=O)N1Cc1ccc(-c2ccc(F)nc2)cc1 (configuration not stated)	nt	nt	nt	-4	4	-12	50	nt
CC(C)C[C@H](N)c1cn([C@@H](Cc2ccc(O)cc2)C(=O)N2CCNCC2)nn1	i	26	23	-8	4	2	-3	-12
CCCn1c(N)c(C(=O)CSc2nc3ccccc3s2)c(=O)[nH]c1=O	i	-2	-4	nt	-1	-10	-19	42
CCn1cc(C(=O)NCCCN2CCCC2)c(=O)c2cc(S(=O)(=O)N3CCc4ccccc4C3)ccc21	i	-10	-10	nt	-1	0	9	9
Cc1[nH]c2ccccc2c1/C=C/c1nc2ccccc2c(=O)n1-c1ccc([N+](=O)[O-])cc1	i	120	-2	nt	1	-10	5	9	eIF4H FP inh retest=2;PABP FP inh retest=2
COc1ccc(NS(=O)(=O)c2cccs2)cn1	i	3	0	-5	-2	4	-10	-7
CCOc1cc(/C=N/NC(=O)c2ccccn2)ccc1OC(=O)c1cccs1	i	-3	-8	-6	1	3	9	0
Cc1[nH]c2ccccc2c1/C=N/NC(=O)c1cc(C(C)(C)C)[nH]n1	i	-1	-1	-5	9	-3	22	-2
COc1cc(NC(=O)c2ccnnc2)cc(C(=O)Nc2cccc(C(F)(F)F)c2)c1	i	-5	-21	-9	4	-3	-8	2
COc1ccccc1N1CCN(C(=O)c2ccc3c(Cl)c4c(nc3c2)CCCC4)CC1	i	-9	-2	-10	4	-4	nt	15
COc1ccc(N(CC(=O)NN=C2CCCC2)S(=O)(=O)c2ccccc2)cc1	i	-1	-1	11	0	1	-14	-1
COc1ccc(CNc2ccc(S(N)(=O)=O)cc2)c(OC)c1OC	i	-6	3	2	2	4	-12	-2
CC(C)NS(=O)(=O)c1ccc(CCC(=O)O)cc1	i	7	4	-17	-1	1	8	nt
COc1ccc(-c2nn(-c3ccccc3)cc2/C=C\C(=O)N2CCOCC2)cc1[N+](=O)[O-]	i	5	1	nt	2	1	26	-13
CN1CCN(C(=O)c2ccc(N(Cc3ccc(Cl)cc3)S(C)(=O)=O)cc2)CC1	i	1	2	-20	-3	3	nt	0
COc1ccccc1CN(C(=O)CNC(=O)c1ccco1)C(C(=O)NCC1CCCO1)c1ccccc1 (configuration not stated)	i	-1	1	-6	-2	2	-6	-11
O=C(N/N=C/c1ccco1)c1ccccc1OCc1ccc(Br)cc1	i	-16	89	nt	-3	-13	-4	nt	eIF4H FP inh retest=25;PABP FP inh retest=35
Cc1ccccc1C(=O)N/N=C/c1ccccn1	i	3	-2	-32	-2	3	-1	-8
CCCn1c(N)c(C(=O)CSc2nc3ccccc3n2CCC#N)c(=O)n(C)c1=O	i	-3	-6	-3	-3	2	nt	nt
O=C(CN1CCOCC1)NNc1nc(-c2ccccc2)c2cc(Br)ccc2n1	i	2	-3	nt	1	1	10	-3
COc1ccc(C)cc1Nc1n[n+](-c2ccccc2)c(-c2ccc(N(C)C)cc2)s1	i	4	-9	-11	1	-6	-15	-2
CCCN(CCC)CCCNC(=O)C1CCC(CNS(=O)(=O)c2cccc3nsnc23)CC1 (configuration not stated)	i	-6	1	-5	0	0	nt	-4
COC(=O)C1CC23C=CCN4CCC5(c6ccccc6NC15C2C)C43 (configuration not stated)	i	0	-2	4	-10	-12	-243	59
CC1C(=O)Nc2ccccc2N1C(=O)c1ccc(Cl)c(Cl)c1 (configuration not stated)	i	3	2	-6	1	-2	8	-11
O=C(OCc1nc2ccccc2s1)C1CCN(C2=NS(=O)(=O)c3ccccc32)CC1	i	1	-8	-9	-3	-1	-49	-3
COc1ccc(CCNC(=O)COc2ncnc3ccccc23)cc1	i	-2	-1	nt	0	3	-11	-13
N#CC(c1ccc(O)cc1)c1ncc(C(F)(F)F)cc1Cl (configuration not stated)	i	-3	3	nt	-9	-4	8	-2
CSc1cccc(NC(=O)Nc2ccc(Cl)cc2)c1	i	-4	-8	nt	1	-6	nt	12
O=S(=O)(NC1CC1)c1ccc(S(=O)(=O)N2CCCC(c3nc(-c4cccnc4)no3)C2)cc1 (configuration not stated)	i	2	3	nt	-2	-6	21	-14
O=C(c1ccc2nc(Cc3cccc(Cl)c3)oc2c1)N1CCC(O)CC1	i	7	-5	-7	2	-2	-2	-2
Fc1ccc(NC(=S)NCc2ccccc2)cc1	i	12	3	-20	1	3	-2	-17
CC(C)N1CCC2(CC1)C(C#N)=C(N)NC(S)=C2C#N	i	-3	42	nt	nt	nt	nt	3
Cc1nnc2sc(SCc3ccc(Cl)cc3)nn2c1=O	i	-12	-7	-5	2	0	-12	-6
CC(=O)N1CCc2c(sc(NC(=O)CCS(=O)(=O)c3ccccc3)c2C(N)=O)C1	i	-7	6	8	-4	5	7	-10
O=C(O)c1cc(Cl)c2ccccc2c1O	i	18	3	-14	-1	3	-7	-9
COc1cccc(NC(=O)CCc2nnc3ccc(NCc4ccco4)nn23)c1	i	22	33	-14	-2	-2	2	-6
C=CC[C@@]12C=C(OC)C(=O)C(OC)=C1O[C@H](c1ccc3c(c1)OCO3)[C@H]2C	i	nt	nt	0	5	0	nt	-18
NC(Cc1ccc(F)cc1)c1csc(Nc2nccc(C(F)(F)F)n2)n1 (configuration not stated)	nt	nt	nt	8	11	-1	-17	nt
COc1ccc(N(CC(=O)Nc2ccccc2OC)S(=O)(=O)c2ccc(OC)c(OC)c2)cc1	i	5	-11	47	-1	0	12	2
CCOC(=O)N1CCN(C(=O)CSc2nnc3[nH]c(=O)c(C)c(C)n23)CC1	i	nt	nt	-3	0	3	2	-7
COc1ccccc1CN(C)C[C@H]1OCc2cnnn2CCCC(=O)N([C@H](C)CO)C[C@@H]1C	nt	nt	nt	-15&-6	1	6	-63	nt
O=C(c1ccccc1F)N1CCN(S(=O)(=O)c2ccc3c(c2)OCCO3)CC1	i	3	-10	-7	-1	-3	39	-12
Remaining list, next part
SMILES	Rce1 inhib	PABP FP inh	eIF4H FP inh	UUG fidelity	MT1-MMP act inh	MT1-MMP act inh RFP	Env fusion inh	CSC inhib	others
Cc1cc(C)cc(NS(=O)(=O)c2cc(C(=O)NCc3ccccn3)ccc2Cl)c1	i	-5	-10	-11	-2	-4	-8	nt
NS(=O)(=O)c1cc(C(=O)OCC(=O)Nc2ccc(Cl)cc2[N+](=O)[O-])ccc1Cl	nt	-9	0	nt	3	5	18	-5
CCN(CC)CCOC(=O)c1ccc(NC(=O)CCCN2C(=O)/C(=C\c3cccs3)SC2=S)cc1	i	-23	-20	-23	0	-3	20	1
Cc1nnc(NC(=O)c2ccc3c(c2)NC(=O)CS3)s1	nt	nt	nt	-18	1	7	nt	6
CC(C)(C)C(=O)O/N=C(\N)c1ccc([N+](=O)[O-])s1	nt	5	-2	nt	4	4	16	-14
CCOc1ccccc1CN1C(=O)NC2(CCCCCC2)C1=O	i	1	8	-8	0	2	?	9
CC1=C(C(=O)c2ccccc2)C(c2ccc(N3CCOCC3)cc2)NC(=O)N1 (configuration not stated)	i	2	16	-1	-22	5	8	nt
O=C(Nc1nnc(COc2ccc(Cl)cc2)s1)c1cccs1	i	4	0	-14	-1	-1	-47	28
Nc1ncnc(Sc2ncccn2)c1[N+](=O)[O-]	i	-6	4	nt	-8	-10	25	nt
CC(C)OC(=O)c1ccc(COC(=O)c2cnccn2)cc1	i	-4	-1	-16	-4	-1	-20	-14
CC(Oc1cc2oc(=O)c3c(c2cc1Cl)CCC3)C(=O)N1C[C@H]2C[C@@H](C1)c1cccc(=O)n1C2 (some centres not stated)	i	3	-1	-12	-4	-4	nt	6
CC(=O)Nc1ccc(S(=O)(=O)NC(C)c2nc(-c3ccccc3)no2)cc1 (configuration not stated)	i	4	2	-7	1	3	21	3
CCOc1ccc(OCCC(=O)OC(C)C(=O)Nc2ccc(C(C)=O)cc2)cc1 (configuration not stated)	i	-3	0	-1	-3	-1	-24	-10
O=C(Nc1ccon1)c1sc2cc(Cl)ccc2c1Cl	i	9	0	-17	-1	4	-100	-5
FC(F)(F)c1nc(Oc2ccccc2)c2ccccc2n1	i	2	2	-27	3	8	nt	2
COc1ccc(C(C(=O)Nc2ccc(C(C)C)cc2)N(C)C(=O)c2ccc(=O)[nH]c2)cc1 (configuration not stated)	i	10	2	nt	6	4	-87	-20
CCn1c(SCC(=O)Nc2ccc3c(c2)OCO3)nnc1-c1ccccc1O	i	6	-6	-17	0	-2	18	nt
CCc1ccc(Nc2n[n+](C)c(-c3ccncc3)s2)cc1	i	8	-4	-11	2	1	5	14
CC(C)c1ccc(Nc2nnc(SCC(=O)NCC3CCCO3)s2)cc1 (configuration not stated)	nt	nt	nt	-13	-1	-2	-31	-5
COc1ccc(N2CCN(C(=O)COC(=O)[C@@H](NC(=O)OCc3ccccc3)C(C)C)CC2)cc1	nt	nt	nt	-8	0	-10	20	nt
Cc1cc(Cl)ccc1NC(=O)CN1CCN(C(=O)c2ccco2)CC1	i	4	-2	-7	-4	-2	3	-1
CCCCOc1ccc(NC(=O)Cn2c(=O)ccc3c(C)cc(C)nc32)cc1	i	6	-5	-11	-10	-4	nt	8
CCc1ccccc1NC(=O)c1cc(S(=O)(=O)N2CCc3ccccc32)cn1C	i	7	-15	8	1	-5	6	nt
CC(C)c1c(C(=O)N/N=C/c2cccc(OCc3ccccc3)c2)nnn1-c1nonc1N	i	-5	10	-20	3	-16	6	-5
CN(C)C/C(Cl)=C(\Cl)c1ccccc1	i	15	-11	-5	-4	3	nt	nt
Cn1ccnc1C(O)c1ccco1 (configuration not stated)	i	0	1	-4	-6	6	nt	0
O=C(NC(=O)N1CCCCC1)c1ccc(Cl)cc1	i	6	6	-9	0	3	3	1
CCc1nc2ccc(C(=O)Nc3cccc(OCC(=O)N(C)C)c3)cn2c1N(C)C(=O)c1cccc(OC)c1	nt	nt	nt	-19	1	7	-21	nt

Screening data from PubChem.

Outcome played no part in choosing rows. Share with any hit: about 3%.
